Source: PubChem
UCH37 inh: inhibitors of human UCH37 deubiquitinase, primary screen, biochemical, Ub-AMC cleavage, fluorescence; purified proteasome/UCH37; Ubiquitin carboxyl-terminal hydrolase isozyme L5 (Homo sapiens), Q9Y5K5; AID 588478, 2011; actives 0.33% (n = 330,000); inhibition, % (concentration not given with the values);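 active means mean of two replicates above 20%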;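 further: 0% = compound-free wells with enzyme and 100% = wells lacking proteasome; stock transfer was 100 nL into about 20 µL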
Target sequence (Q9Y5K5 whole entry, looked up): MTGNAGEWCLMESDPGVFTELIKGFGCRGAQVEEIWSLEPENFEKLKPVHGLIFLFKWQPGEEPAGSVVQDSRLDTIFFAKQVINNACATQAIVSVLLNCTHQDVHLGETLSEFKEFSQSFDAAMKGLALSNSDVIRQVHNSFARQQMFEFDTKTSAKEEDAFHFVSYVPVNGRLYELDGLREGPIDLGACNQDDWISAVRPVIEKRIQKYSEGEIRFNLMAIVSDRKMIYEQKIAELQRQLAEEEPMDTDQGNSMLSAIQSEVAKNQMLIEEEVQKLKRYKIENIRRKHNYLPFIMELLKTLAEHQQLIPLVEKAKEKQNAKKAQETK
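Assay system: Proteasome-bound UCH37. Buffer or medium: pH 7.4 Tris-HCl (50 mM) with ovalbumin, ATP-MgCl2, DTT. Incubation: 30 min preincubation with enzyme, 25 min cleavage at room temperature. Measured by: fluorescence, ex 355 nm, em 460 nm. Read-out basis: percent inhibition. Control set: wells without proteasome as full block, compound-free enzyme plus substrate as uninhibited.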
RanGTP-Impb inh: inhibitors of RanGTP-importin-beta interaction, primary screen, biochemical, FRET, CFP-Ran, YFP-importin-beta, homogeneous; Ran GTPase (GTP-bound) - importin-beta complex; cell-free CFP-Ran/YFP-importin-beta FRET ratio; inhibition, % (test concentration not listed); actives 1.1% (n = 300,000); AID 2216, 2009;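 active means most replicates above 15%; inconclusive means exactly half above 15%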;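 further: 0% = DMSO wells and 100% = Ran loaded with GDP instead of GTP; wells of about 40 µL received 100 nL stock; the first replicate is given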
Vif TR-FRET: inhibitors of Vif binding to APOBEC3G peptide, primary screen, biochemical, TR-FRET, GST-Vif 1-94, biotin-A3G peptide, dose response retest (AID 1117319) | Virion infectivity factor (Human immunodeficiency virus type 1 group M subtype B (isolate … | actives 0.57% (n = 260,000) | TR-FRET GST-Vif / biotin-A3G peptide binding; higher % means a stronger effect; test concentration not given here; strong numbers were not always called active | one-dose inhibition, %; IC50 in µM for titrated hits;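 active means above the screen mean plus three standard deviations and confirmed in dose response; inconclusive means results disagree or hit not tested in dose response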;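 further: Vif residues 1-94 fused to GST binding biotinylated APOBEC3G peptide 110-148; 0% = full assay without inhibitor and 100% = GST in place of GST-Vif; retest series ran down from 100 µM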
FGF22 binding: binders of human FGF22 protein, primary screen, FGF22 synaptogenesis inhibitor project, biophysical, thermal shift, single point. Fibroblast growth factor 22 (Homo sapiens), Q9HCT0. recombinant FGF22 thermal shift, SYPRO orange fluorescence; percent of sucrose octasulfate shift, DMSO zero. calls only at 9.99 µM. actives 1.5% (n = 340,000);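 active means melting point raised past a set limit in the mean and every replicate; inconclusive means no clear call; three in four hits are not shown here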
Target sequence (Q9HCT0 whole entry, looked up): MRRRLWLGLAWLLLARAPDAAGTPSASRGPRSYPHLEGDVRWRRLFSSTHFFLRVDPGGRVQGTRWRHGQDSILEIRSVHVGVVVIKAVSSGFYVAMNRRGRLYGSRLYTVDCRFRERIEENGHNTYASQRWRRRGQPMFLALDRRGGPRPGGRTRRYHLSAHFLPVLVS
AF4-AF9 inh: inhibitors of AF4 peptide binding to AF9, primary screen, biochemical, AlphaScreen, biotin-AF4 peptide, FLAG-AF9, single point. inhibition, % at 10 µM. actives 0.47% (n = 350,000). AID 651704, 2012. Protein AF-9 (Homo sapiens), P42568;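 active means every replicate reaching a set inhibition limit, whatever the replicate mean, cut at about 25% in these data; inconclusive means mean inhibition reaches that limit but some replicates miss it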;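 further: 0% = plate neutral control median and 100% = total signal loss; the record names both 10 and 1 µM as test concentration; the first replicate is given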
E coli growth: E. coli growth inhibition, primary screen, OD600; Escherichia coli growth, 23 h; stronger effect = lower value; OD600 absorbance (no concentration beside the values); actives 0.21% (n = 330,000); AID 1053175, 2014;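 active means OD600 absorbance below the run mean of sample wells minus 3.6 SD, in any replicate, cut at about 0.56 in these data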;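 further: stock transfer was 300 nL into about 60 µL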
HNF4A DNA FP: change in binding of human HNF4A to DNA, primary screen, biochemical, fluorescence polarization, FITC-DNA; 1 h; activity change, % at 10 µM; actives 0.3% (n = 360,000); AID 1224865, 2016; in the data active means activity change above about 30%, passing the limit was not always enough;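 further: controls were the assay level and a saturating level of protein; the project sought stronger binding though the title names inhibitors; some compounds called inactive have numbers as strong as hits; positive values seem to mean higher polarization but the record does not say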
Target sequence (P41235 whole entry, looked up): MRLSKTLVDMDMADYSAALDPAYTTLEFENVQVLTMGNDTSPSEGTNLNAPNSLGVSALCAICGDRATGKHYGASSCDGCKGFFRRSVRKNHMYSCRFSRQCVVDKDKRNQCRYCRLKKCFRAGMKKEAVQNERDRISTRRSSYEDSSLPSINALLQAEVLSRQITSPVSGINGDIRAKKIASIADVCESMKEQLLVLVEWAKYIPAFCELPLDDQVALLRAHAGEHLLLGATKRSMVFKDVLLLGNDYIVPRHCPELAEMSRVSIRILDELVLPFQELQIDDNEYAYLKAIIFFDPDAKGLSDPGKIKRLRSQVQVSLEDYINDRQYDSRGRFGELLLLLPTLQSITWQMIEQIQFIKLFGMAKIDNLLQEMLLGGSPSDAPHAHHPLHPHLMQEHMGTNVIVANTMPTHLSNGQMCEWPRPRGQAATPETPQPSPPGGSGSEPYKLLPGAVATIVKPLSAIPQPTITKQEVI
* hit, by the source's call; i = inactive; ? = inconclusive; nt = no result given; + = active, no number; & = joins results of further samples.

SMILES	UCH37 inh	RanGTP-Impb inh	Vif TR-FRET	FGF22 binding	AF4-AF9 inh	E coli growth	HNF4A DNA FP
COc1ccc(-c2cc(C(=O)N3CCCCC3)c3ccccc3n2)cc1	-392	-1.6	11%	i	-1.3	0.68	0.3
Cc1ccc(S(=O)(=O)N/N=C\c2cn(CC(N)=O)c3ccccc23)cc1	nt	1.1	-3%	i	-2.2	nt	4.3
CCN(CC)S(=O)(=O)c1cccc(NC(=O)CSc2nc3ccccc3[nH]2)c1	3.2	-2.1	6%	i	1.6	0.7	4.9
CCOc1ccc(CCNC(=O)CCCN2C(=O)c3ccccc3C2=O)cc1OCC	1.7	?	-1%	nt	nt	0.69	4.3
Cc1onc(-c2ccccc2Cl)c1C(=O)NCCCN1CCOCC1	2.9	-3.0	8%	nt	nt	0.65	0.1
Cn1ccs/c1=N\S(=O)(=O)c1ccc(C(C)(C)C)cc1	nt	-0.8	?	nt	nt	nt	0.6
COc1ccc(NC(=O)Nc2ccc3c(c2)C(=O)N([C@H](C)CO)C[C@H](C)[C@@H](CN(C)C(=O)NC(C)C)O3)cc1	-44	nt	nt	i	0.3&0.6	0.75	-3.7
O=[N+]([O-])c1ccc(NN=Cc2ccccc2O)nc1	-0.3	nt	7%	i	2.1	0.63	9.5
O=C(c1cc(COc2c(F)cccc2F)on1)N1CCc2ccccc2C1	3.8	0.0	13%	i	-2.5	0.68	-1.9
CN(C)/N=C/C=C1\CC/C(=C\c2ccc(F)c(F)c2)C1=O	nt	-3.5	nt	i	-3.7	nt	15
O=C1N(Cc2cccnc2)C[C@@H]2C[C@@H](c3cccc(C(F)(F)F)c3)N3CCC[C@@]123	1.0	0.3	1%	i	1.9	0.7	3.6
COC(=O)Nc1ccc(S(=O)(=O)N2CCN(C)CC2)cc1	4.9	-1.0	0%	nt	nt	0.73	-1.3
CS(=O)(=O)c1ccc(-c2sc3ccccc3c2C(=O)N2CCN(c3ccc(F)cc3)CC2)cc1	4.7	nt	nt	i	-4.9	0.72	3.0
COc1ccc(NC(=O)c2ccc(S(=O)(=O)N3CCCC3)cc2)cc1OC	2.1	nt	?	i	0.7	0.66	3.8
CCc1cccc2c(C(=O)COC(=O)c3cnc(C)cn3)c[nH]c12	1.1	nt	-6%	i	-1.6	0.63	1.4
C[C@H](NC(=O)[C@H]1N2C(=O)c3ccccc3C2SC1(C)C)C(=O)NCC1CCCO1 (stereo partly drawn)	3.1	-2.6	-2%	i	-0.3	0.71	0.0
Nc1c(C(=O)NCc2ccco2)sc2nc(N3CCOCC3)c3c(c12)CCCC3	-145	-2.1	4%	nt	nt	0.73	4.2
CCOc1ccc(NC(=O)Nc2ccc(Br)cn2)cc1	2.8	-4.4	-7%	i	-1.5	0.74	0.9
Cc1c(Cl)c([N+](=O)[O-])nn1CC(=O)N1CCCc2ccccc21	nt	-0.1	1%	i	3.7	nt	0.9
C=C/C(C)=C/CC1C(=C)CCC2C(C)(C(=O)O)CCCC12C (stereo not drawn)	5.5	-1.4	nt	i	1.9	0.69	-24
COc1ccc(O[C@@H]2O[C@H](COC(C)=O)[C@@H](OC(C)=O)[C@H](OC(C)=O)[C@H]2NC(C)=O)cc1	2.2	-2.6	-6%	i	-5.6	0.71	0.0
Cc1ccc(SCCNC(=S)Nc2cc(C)cc(C)c2)cc1	6.7	-1.4	0%	nt	nt	0.77	-2.6
Cc1ccc(CN2CCNC(=O)C2CC(=O)N(C)C2CCCCC2)cc1 (stereo not drawn)	nt	-2.6	nt	+	1.2	nt	0.3
Cc1ccc(C(=O)c2coc3ccc(O)c(CN4CCN(C)CC4)c23)cc1	4.5	nt	3%	nt	nt	0.71	2.5
NS(=O)(=O)c1ccc(NC(=S)Nc2ccc(C(=O)N3CCCCC3)cc2)cc1	5.3	6.0	16%	i	0.0	0.62	1.4

The results go on.
SMILES	UCH37 inh	RanGTP-Impb inh	Vif TR-FRET	FGF22 binding	AF4-AF9 inh	E coli growth	HNF4A DNA FP
O=C(/C=C/c1ccco1)Oc1cc(Br)cc(/C=N/NC(=O)c2ccccc2O)c1	nt	5.0	21%	nt	nt	nt	2.0
CC(=O)NC(Cc1ccc(F)cc1)C(=O)NC1CCN(C(=O)NCc2ccccc2)CC1 (stereo not drawn)	nt	0.4	-7%	i	0.0	nt	-1.4
CS(=O)(=O)Cc1ccc(C(=O)NCC2(N3CCCCC3)CCCCC2)cc1	5.7	2.2	nt	i	2.3	0.7	-0.4
Fc1ccc(Cn2nnnc2CN2CCN(C3CCCCC3)CC2)cc1	1.2	4.3	3%	nt	nt	0.72	-1.2
O=C(CCNC(=O)c1ccco1)Nc1ccc(Cl)cc1F	2.9	-2.2	nt	i	-1.1	0.67	5.0
COCCCC1CCN(C(=O)C2CCC(=O)N(CC3CCCCC3)C2)CC1 (stereo not drawn)	-1.1	5.6	nt	i	-1.7	0.68	-3.5
O=S(=O)(c1cccc2nonc12)N1CCN(c2cccc(Cl)c2)CC1	4.2	0.7	-3%	nt	nt	0.74	-0.1
COc1ccc(/C=C\C(=O)Oc2cccc(/C=N/NC(=O)Cc3ccc(OC)c(OC)c3)c2)cc1	nt	4.1	-5%	nt	nt	nt	3.4
COc1ccc(-c2noc(CSc3ccccc3)n2)cc1OC	3.7	-1.4	-6%	nt	nt	0.67	7.5
COc1ccc(C(=O)Nc2cccc(/C=C(/CCC(=O)O)c3nc4ccccc4s3)c2)cc1	-25	nt	0%	i	-1.3	0.7	2.5
N#Cc1ccccc1OCC(=O)NCc1ccccc1CN1CCCC1	-0.4	nt	nt	i	-3.4	0.66	-0.3
COc1cccc(CC(=O)OC(C)C(=O)Nc2ccc(Cl)cn2)c1 (stereo not drawn)	-1.7	5.5	-2%	i	-1.3	0.64	0.7
CCOC(=O)C1=C(C)N(CC(C)C)C(=O)/C1=C\c1ccc(OCC(=O)Nc2ccccc2)cc1	1.0	9.4	-5%	nt	nt	0.7	2.3
COc1ccccc1N1CCN(C2CCCN(C(=O)CCn3cncn3)C2)CC1 (stereo not drawn)	0.7	?	4%	i	1.2	0.65	0.7
O=C(Cc1cccc([N+](=O)[O-])c1)Nc1ccccc1	nt	nt	-4%	i	0.1	nt	-2.4
C=CCNC(=O)/C=C/c1cccs1	3.3	-0.8	nt	i	-0.5	nt	5.1
CCC/C(O)=C1\C(=O)CC(C)(C)CC1=Nc1ccccc1O	4.8	4.5	1%	i	-0.1	0.67	1.8
COc1ccccc1C(CNC(=O)CNC(=O)c1cccc(Cl)c1)N1CCCC1 (stereo not drawn)	1.0	nt	2%	i	5.4	0.68	4.4
COc1cccc(C2C(C#N)=C(N)N(N(C)C)C3=C2C(=O)CCC3)c1OC (stereo not drawn)	4.0	3.6	2%	i	-0.7	0.7	2.9
Cc1ccc2cc(C#N)c(N3CCN(C)CC3)nc2c1	-15	3.8	3%	nt	nt	0.72	2.4
CCCCCNC(=O)C(C)NS(=O)(=O)c1ccc(OC)cc1 (stereo not drawn)	4.5	-1.7	0%	nt	nt	0.8	0.4
CCN(CC(=O)Nc1ccc2c(c1)OCCO2)C(=O)c1cc(S(=O)(=O)N2CCOCC2)ccc1F	1.6	nt	-1%	i	1.8	0.67	3.2
COc1ccc(-c2nn(-c3ccccc3)cc2C(=O)N(C)CC(=O)Nc2ccccc2Br)cc1	1.7	nt	nt	i	0.6	0.68	-0.2
Cc1ccc(SCc2[nH]nc3c2C(c2cccnc2)C(C#N)=C(N)O3)cc1 (stereo not drawn)	4.5	3.9	6%	i	-3.1	0.73	2.1
Cc1ccc(C2CC(=O)c3cnc(N4CCN(c5ccccc5)CC4)nc3C2)cc1 (stereo not drawn)	-2.7	-3.6	-3%	nt	nt	0.76	3.0

Molecules from the list above containing a COOH group:
SMILES	UCH37 inh	RanGTP-Impb inh	Vif TR-FRET	FGF22 binding	AF4-AF9 inh	E coli growth	HNF4A DNA FP
C=C/C(C)=C/CC1C(=C)CCC2C(C)(C(=O)O)CCCC12C (stereo not drawn)	5.5	-1.4	nt	i	1.9	0.69	-24
COc1ccc(C(=O)Nc2cccc(/C=C(/CCC(=O)O)c3nc4ccccc4s3)c2)cc1	-25	nt	0%	i	-1.3	0.7	2.5

Following part.
SMILES	UCH37 inh	RanGTP-Impb inh	Vif TR-FRET	FGF22 binding	AF4-AF9 inh	E coli growth	HNF4A DNA FP
O=C1CN=CN=CN1c1ccc(Cl)cc1Cl	4.3	7.9	nt	i	-4.5	0.71	0.5
CC(=O)Nc1cccc(-c2ccnc3c2CC(C)(C(=O)Nc2ccc4c(c2)OCO4)O3)c1 (stereo not drawn)	nt	nt	nt	i	4.0	nt	4.3
O=C(CN1C(=O)NC2(CCCCC2)C1=O)N1CCN(S(=O)(=O)c2ccc(F)c(F)c2F)CC1	-2.3	nt	5%	i	-1.6	0.7	-0.4
Cc1cc(=O)[nH]c(-n2nc(C)c(Oc3ccccc3O)c2C)n1	1.0	1.7	5%	nt	nt	0.66	-4.6
CN(Cc1nc(-c2ccc(Cl)cc2)no1)C(=O)CCN1C(=O)[C@H]2CC=CC[C@H]2C1=O	-0.4	-0.1	-6%	i	2.1	0.7	-2.8
O=C1C(Cl)=C(N2CCCC2)C(=O)N1c1ccc(F)cc1	4.6	-3.6	nt	i	-0.2	0.62	-2.3
CSC1SCC2C(=O)N(C)C(C(C)C)C(=O)OCC(NC(=O)c3cnc4ccccc4n3)C(=O)NC(C)C(=O)N(C)C1C(=O)N(C)C(C(C)C)C(=O)OCC(NC(=O)c1cnc3ccccc3n1)C(=O)NC(C)C(=O)N2C (stereo not drawn)	nt	nt	15%	i	-2.4	nt	-47
COC(=O)c1ccccc1S(=O)(=O)NCc1nc2nc(C)cc(C)n2n1	5.9	-10	nt	i	-0.9	0.67	-2.5
COCCn1c(C)cc(C(=O)COC(=O)c2ccc3c(c2)NC(=O)CS3)c1C	5.7	3.2	?	nt	nt	0.72	1.6
Cc1ccc(Sc2ccc(/C=C3/C(=O)NN(c4ccccc4)C3=O)o2)cc1	14	7.6	22%	i	6.5	0.74	-11
CN(C)C(=O)N1CCCC(C(=O)NCc2ccc(F)cc2Cl)C1 (stereo not drawn)	5.0	-4.4	?	nt	nt	0.7	2.8
CCN1CCN(C(=O)c2cc(-c3ccc(Cl)s3)nc3ccccc23)CC1	-461	7.8	nt	i	15	0.74	-2.5
C[C@H](NC(=O)c1nc[nH]c1C(=O)N[C@H](C)c1ccccc1)C(=O)OC(C)(C)C	0.7	-1.7	-11%	i	2.2	nt	-3.0
CC(=O)Nc1cccc(NC(=S)Nc2cccc(Cl)c2C)c1	7.1	-1.7	nt	i	0.6	0.68	-0.3
CCCCOC(=O)Nc1nnc(COc2ccccc2)s1	2.1	-3.0	1%	nt	nt	0.68	-2.7
CCOC(=O)c1c(-c2ccc(OC)cc2)csc1NC(=O)C1CCCO1 (stereo not drawn)	0.2	1.8	5%	i	-6.5	0.72	3.9
COC1=CC(=O)[C@@]2([C@@H]1O)[C@@H](Cl)C[C@]13C(OC)=C(OC)C(=O)C[C@]21CCN3C	-0.2	nt	nt	i	-2.7	nt	-3.9
Cc1cc(C(=O)Nc2ccccc2Cl)c2ccccc2n1	3.4	-0.7	nt	i	-3.0	0.62	3.6
CCn1cc(CN2CCN(CC(C)(C)C)C(CCO)C2)c2ccccc21 (stereo not drawn)	1.9	1.7	-2%	i	5.2	0.68	0.9

Some of the compounds tested, so the mix of outcomes need not match the whole.
